MbtI inh: MbtI salicylate synthase inhibition | P9WFX0 | purified MbtI enzyme, fluorescence intensity read-out | inhibition, %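 (about 17 µg/mL by stock and volumes)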 | 100,000 compounds, 0.89% hits | AID 493033;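 active = above 50% in both replicates, above 80% if mildly self-fluorescent; inactive = the rest, strongly fluorescent compounds included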;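 also: 0% = mean of negative and 100% = mean of positive controls; one replicate is shown; some compounds called inactive have numbers as strong as hits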
Target sequence (P9WFX0 whole entry, looked up): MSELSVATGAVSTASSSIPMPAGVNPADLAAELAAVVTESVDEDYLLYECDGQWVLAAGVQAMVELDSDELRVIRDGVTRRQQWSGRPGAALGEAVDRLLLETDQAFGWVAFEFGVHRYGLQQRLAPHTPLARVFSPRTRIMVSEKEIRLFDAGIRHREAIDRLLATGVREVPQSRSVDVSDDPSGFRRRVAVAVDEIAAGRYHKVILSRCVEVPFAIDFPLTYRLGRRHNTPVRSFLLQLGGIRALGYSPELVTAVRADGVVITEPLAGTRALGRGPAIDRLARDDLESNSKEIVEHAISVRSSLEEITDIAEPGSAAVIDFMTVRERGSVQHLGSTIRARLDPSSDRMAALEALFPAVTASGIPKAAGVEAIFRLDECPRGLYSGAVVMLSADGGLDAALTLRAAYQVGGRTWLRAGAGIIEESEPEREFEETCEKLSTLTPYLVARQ
Polio RdRp inh: inhibitors of poliovirus RNA polymerase binding and polymerization; 150,000 compounds, 0.66% hits; poliovirus polymerase elongation, fluorescence polarization; stronger effect = lower value; P03300; % elongation, % (compound at 16.7 µg/mL); in the data active = % elongation below about 90%; also: some results filed as inactive read as strong as hits
MenB inh: blocks the Mycobacterium tuberculosis MenB enzyme; P9WNP5; MenB enzyme assay, absorbance read-out; some hits fall short of the stated cut; inhibition, %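 (about 12 µg/mL by stock and volumes)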; 100,000 compounds, 0.43% hits;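 active = mean of two replicates above 30%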;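 also: 0% = no compound and 100% = wells with inactive enzyme; the first replicate is given; strong numbers were not always called active; inactives centre near -10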
Target sequence (P9WNP5 whole entry, looked up): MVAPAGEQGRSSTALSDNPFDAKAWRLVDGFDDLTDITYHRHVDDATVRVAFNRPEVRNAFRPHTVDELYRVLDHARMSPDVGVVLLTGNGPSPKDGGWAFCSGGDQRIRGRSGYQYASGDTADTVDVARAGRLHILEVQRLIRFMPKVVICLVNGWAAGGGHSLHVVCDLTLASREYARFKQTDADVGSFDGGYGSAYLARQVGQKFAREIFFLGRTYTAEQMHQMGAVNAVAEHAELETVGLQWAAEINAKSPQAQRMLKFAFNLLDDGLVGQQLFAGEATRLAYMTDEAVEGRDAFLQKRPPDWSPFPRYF
Polio RdRp inh intensity: further read-out of Polio RdRp inh, marked with its call; % elongation; measured here: total intensity read-out; formula for this scale not given here;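 total fluorescence in place of polarization; lower means less elongation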
Active calls of the source: *; i = inactive; / = no result given; & = joins results of further samples.

1) O=C1COc2cc(O)ccc21
2) COc1ccc(S(=O)(=O)NCC(c2ccc3c(c2)OCO3)N2CCN(C)CC2)cc1 (stereo not drawn)
3) COc1ccc(C2=NCC(CSc3nnc(-c4ccc5c(c4)OCO5)o3)S2)cc1 (stereo not drawn)
4) O=C(N/N=C/c1ccc(OC(=O)c2ccco2)cc1)c1ccccn1
5) O=C(c1ccc(S(=O)(=O)N2CCOCC2)cc1)N1CCN(c2cccc(Cl)c2)CC1
6) COC(=O)c1sc2nc[nH]c(=O)c2c1C
7) O=C(O)CSC1CC(=O)N(c2cccc(C(F)(F)F)c2)C1=O (stereo not drawn)
8) COc1ccc(-[n+]2cc([O-])on2)cc1
9) CC(C(=O)O)N1C(=O)/C(=C2/C(=O)N(C)c3ccccc32)SC1=S (stereo not drawn)
10) CC(Sc1ccccc1)C(=O)Nc1ccccc1Cl (stereo not drawn)

compound no.	1	2	3	4	5	6	7	8	9	10
MbtI inh	21	-16	6	-15	-3	-110	-7	19	21	-19
Polio RdRp inh	105	101	102	102	94	98	95	95	97	100
Polio RdRp inh intensity	108	106	105	101	97	104	107	88	95	100
MenB inh	3	-39	-20	-7	-13	1	-28	-5	-128	-16

11) CCO/C(C)=C(\C#N)C(=O)O
12) CC(C(=O)N1CCN(c2ccc(F)cc2)CC1)N1C(=O)c2ccccc2C1=O (stereo not drawn)
13) CCCCN(C)C(=O)Cn1ncc2c(C)n(Cc3ccc(C)cc3)c(C)c2c1=O
14) O=C(O)CCC(C(=O)O)N1C(=O)/C(=C\c2ccco2)SC1=S (stereo not drawn)
15) Cc1cc(C)nc(SCC(=O)N(c2ccccc2)C(C)C)n1
16) COc1ccc(N=Cc2cn(-c3ccccc3)nc2-c2cc3ccccc3o2)cc1
17) CCC(C)NC(=O)c1cc(C2CC2)on1 (stereo not drawn)
18) CCN(CC)C(=O)C1CCC(=O)N(c2ccc(OC)cc2)C1c1ccc(OC)c(OC)c1 (stereo not drawn)
19) Cc1cccc(C2CC(=O)NC3=C2C(=O)CC(c2cccs2)C3)c1 (stereo not drawn)
20) N#C/C(=C\c1ccncc1)c1ccc(NC(N)=O)cc1

compound no.	11	12	13	14	15	16	17	18	19	20
MbtI inh	20	0	3	15	-16	15	0	-1	4	-14
Polio RdRp inh	100	102	101	102	104	102	100	100	98	103
Polio RdRp inh intensity	95	97	103	104	104	104	97	101	105	110
MenB inh	-1	-13	10	i	/	9	-16	-16	1	-16

21) COc1cccc(NS(=O)(=O)c2cc(OC)ccc2OC)c1
22) CN(C)/C=C/c1cc2c(cn1)C(=O)c1ccccc1-2
23) C[C@H](CCC(=O)O)[C@H]1CC[C@H]2[C@@H]3CC[C@@H]4C[C@H](O)CC[C@]4(C)[C@H]3CC[C@]12C
24) CCOc1ccc2nc(SCc3nnc(-c4cccs4)o3)sc2c1
25) Cc1ccc(C2=C/C(=C\c3ccccc3C)C(=O)O2)cc1
26) CN(C)C1=NP(N(C)C)(N(C)C)=NC(c2ccccc2)=N1
27) CC(C)n1c(NCc2ccccc2)nc2c1c(=O)[nH]c(=O)n2C
28) OCCSc1nnc2c(n1)[nH]c1ccccc12
29) CC(=O)NCc1ccc(C(=O)CSc2nnc(C3COc4ccccc4O3)n2C)cc1 (stereo not drawn)
30) Nc1nc(SCC(=O)N2CC(=O)Nc3ccccc32)n[nH]1

compound no.	21	22	23	24	25	26	27	28	29	30
MbtI inh	3	/	-24	18	-8	-4	20	11	7	0
Polio RdRp inh	99	114	102	107	103	103	102	100	99	102
Polio RdRp inh intensity	101	208	100	116	110	109	103	102	105	103
MenB inh	-12	-31	-14	-1	-5	-7	-20	-13	-10	-22

31) O=C(Cn1cc(/C=C2/SC(=O)NC2=O)c2ccccc21)Nc1ccccc1
32) CCN(CC)S(=O)(=O)c1ccc(NC(=O)COC(=O)C2=NNC(=O)CC2)cc1
33) CC(C)OC(=O)CCC1(C(=O)O)CCC(=O)NC1 (stereo not drawn)
34) Cc1ccc(-c2nnc(Nc3ccc(S(N)(=O)=O)cc3)c3ccccc23)cc1S(N)(=O)=O
35) CCCn1c(N)c(C(=O)CN(C)Cc2ccc(CC)cc2)c(=O)n(C)c1=O
36) CC1CCCC(C)N1C(=O)CSCc1ccco1 (stereo not drawn)
37) C=CCn1c(SC(C)C(N)=O)nnc1C1CCCCC1 (stereo not drawn)
38) O=C1NC(=O)N(CCC2=CCCCC2)C(=O)/C1=C\c1cc2c3c(c1)CCCN3CCC2
39) O=C(OCCn1ccnc1)c1ccc(-c2ccccc2)cc1
40) Cc1ccc(C2=NNC(c3cccs3)S2)cc1 (stereo not drawn)

compound no.	31	32	33	34	35	36	37	38	39	40
MbtI inh	12	-1	-7	/	16	-10	-7	-1	22	/
Polio RdRp inh	101	104	102	101	102	103	104	98	105	72*
Polio RdRp inh intensity	103	101	103	101	99	107	106	106	103	85*
MenB inh	-12	-9	16	-12	-5	/	-21	-25	-29	-3

41) O=C(NCCN1CCCCC1)c1ccc(/C=N/O)nc1
42) Cc1cccc(N(C)S(=O)(=O)c2ccc3c(c2)CCC(=O)N3)c1
43) O=C(Cc1nc(-c2cccs2)no1)Nc1ccc(F)cc1
44) COc1cc(OC)c(NC(C)C(=O)Nc2cccc(C#N)c2)cc1Cl (stereo not drawn)
45) CC(COc1ccc2c(c1)OCO2)NC(=O)Cc1n[nH]c(=O)c2ccccc12 (stereo not drawn)
46) COC(=O)C1Cc2ccccc2CN1C1CC(=O)N(c2cc(C)ccc2C)C1=O (stereo not drawn)
47) O=C(O)c1ccccc1C(=O)NCC1CCCO1 (stereo not drawn)
48) CN1CCN(c2ccccc2NC(=O)C2c3ccccc3C(=O)N(C)C2c2cn(C)c3ccccc23)CC1 (stereo not drawn)
49) O=C(CN1N=C(c2ccccc2)CCC1=O)NC1CC1
50) COc1nc(Nc2ccc3c(c2)OCO3)nc(OC)n1

compound no.	41	42	43	44	45	46	47	48	49	50
MbtI inh	0	3	-13	-12	-16	-6	/	-2	16	11
Polio RdRp inh	101	102	100	/	102	102	109	101	106	105
Polio RdRp inh intensity	102	105	101	/	100	106	110	102	99	107
MenB inh	-17	7	-1	-19	-12	-1	-3	-7	9	-30

51) COc1ccc(CN2CCN(C3=NS(=O)(=O)C(c4ccc(Cl)cc4)=C3C)CC2)c(OC)c1OC
52) CCOP(=S)(OCC)N1CCOCC1
53) O=C(OCC(F)(F)C(F)F)c1ccc2ccccc2c1
54) N/C(=N\O)c1c(Cl)cccc1Cl
55) CC1CC(C)CN(C(=O)CSc2nc3cc(S(=O)(=O)N(C)C)ccc3o2)C1 (stereo not drawn)
56) Cc1nn(CC(C)C)c(Cl)c1CNCCC(=O)N1CCCC1
57) O=C(CN1CCC(N2CCCCC2)CC1)NC12CC3CC(CC(C3)C1)C2
58) CC(N)c1ccc(-c2ccccc2)cc1 (stereo not drawn)
59) CN(C)c1cc(Nc2ccc(Cl)cc2)c2c3c(onc13)-c1ccccc1C2=O
60) O=C(Cn1nc(-c2ccccc2)c2ccccc2c1=O)N1CCOCC1

compound no.	51	52	53	54	55	56	57	58	59	60
MbtI inh	10	17	94	200	-7	-13	0	-3	-8	-4
Polio RdRp inh	102	97	100	104	97	95	101	77	109	104
Polio RdRp inh intensity	102	95	101	104	99	92	100	159	111	104
MenB inh	-15	-30	-18	11	-10	-23	-34	-30	-1	-18

61) Cc1ccc(NC(=O)CN2CCSC2=O)cc1
62) C/C(=N\O)c1ccc2c(c1)Cc1ccccc1-2
63) Cc1cc(Cc2ccc(Cl)cc2)c(=O)[nH]n1
64) Cc1ccc(CNC(=S)N2CCOCC2)cc1
65) O=C1CSC(c2ccccn2)N1Cc1cn2ccccc2n1 (stereo not drawn)
66) Cc1ccc(-c2ccc(C)c(N)c2C)c(C)c1N
67) O=c1cc(-c2ccc(F)cc2)c2c([nH]1)Oc1c(nc(-c3ccccc3)[nH]c1=O)O2
68) O=c1cc(-c2ccc(O)cc2)oc2cc(O)cc(O)c12
69) CN(C(=O)c1ccccc1)C1CCS(=O)(=O)C1 (stereo not drawn)
70) COC(=O)C1=C(C)N(Cc2cccnc2)C(=O)/C1=C\c1ccccc1C(F)(F)F

compound no.	61	62	63	64	65	66	67	68	69	70
MbtI inh	12	0	1	-6	-4	-4	-20	8&-2	2	-9
Polio RdRp inh	99	104	101	100	101	102	100	97&102	101	103
Polio RdRp inh intensity	95	102	96	102	105	106	104	101&99	103	106
MenB inh	-14	-96	-8	-10	/	/	-19	5&-13	-3	-20

Part of the list above, in markdown:
| No. | SMILES | MbtI inh | Polio RdRp inh | Polio RdRp inh intensity | MenB inh |
| --- | --- | --- | --- | --- | --- |
| 55 | CC1CC(C)CN(C(=O)CSc2nc3cc(S(=O)(=O)N(C)C)ccc3o2)C1 (stereo not drawn) | -7 | 97 | 99 | -10 |
| 56 | Cc1nn(CC(C)C)c(Cl)c1CNCCC(=O)N1CCCC1 | -13 | 95 | 92 | -23 |
| 57 | O=C(CN1CCC(N2CCCCC2)CC1)NC12CC3CC(CC(C3)C1)C2 | 0 | 101 | 100 | -34 |
| 58 | CC(N)c1ccc(-c2ccccc2)cc1 (stereo not drawn) | -3 | 77 | 159 | -30 |
| 59 | CN(C)c1cc(Nc2ccc(Cl)cc2)c2c3c(onc13)-c1ccccc1C2=O | -8 | 109 | 111 | -1 |
| 60 | O=C(Cn1nc(-c2ccccc2)c2ccccc2c1=O)N1CCOCC1 | -4 | 104 | 104 | -18 |
| 61 | Cc1ccc(NC(=O)CN2CCSC2=O)cc1 | 12 | 99 | 95 | -14 |
| 62 | C/C(=N\O)c1ccc2c(c1)Cc1ccccc1-2 | 0 | 104 | 102 | -96 |
| 63 | Cc1cc(Cc2ccc(Cl)cc2)c(=O)[nH]n1 | 1 | 101 | 96 | -8 |
| 64 | Cc1ccc(CNC(=S)N2CCOCC2)cc1 | -6 | 100 | 102 | -10 |
| 65 | O=C1CSC(c2ccccn2)N1Cc1cn2ccccc2n1 (stereo not drawn) | -4 | 101 | 105 | / |
| 66 | Cc1ccc(-c2ccc(C)c(N)c2C)c(C)c1N | -4 | 102 | 106 | / |
| 67 | O=c1cc(-c2ccc(F)cc2)c2c([nH]1)Oc1c(nc(-c3ccccc3)[nH]c1=O)O2 | -20 | 100 | 104 | -19 |
| 68 | O=c1cc(-c2ccc(O)cc2)oc2cc(O)cc(O)c12 | 8&-2 | 97&102 | 101&99 | 5&-13 |
| 69 | CN(C(=O)c1ccccc1)C1CCS(=O)(=O)C1 (stereo not drawn) | 2 | 101 | 103 | -3 |
| 70 | COC(=O)C1=C(C)N(Cc2cccnc2)C(=O)/C1=C\c1ccccc1C(F)(F)F | -9 | 103 | 106 | -20 |

Continued:
71) Cc1ccc(SC(C)c2nc(-c3ccncc3)no2)cc1 (stereo not drawn)
72) Cc1ccc(-c2nc(C=Nc3ccccc3)c(O)o2)cc1
73) O=C1CCC2CC1CCC2=O
74) COC(=O)C1=C(NC(=O)c2ccc(S(=O)(=O)N3CCCCC3)cc2)CCS1
75) COC(=O)c1ccc(CNC(=O)c2cc3c(s2)CCCC3)cc1
76) Cc1cc(C)c(C#N)c(SCC(=O)c2cc(C)n(C3CCS(=O)(=O)C3)c2C)n1 (stereo not drawn)
77) Cc1ccc(NC(=S)N2CCC(Nc3nccc(C(F)(F)F)n3)CC2)c(C)c1
78) COc1ccccc1OC(=O)CN1C(=O)c2ccccc2C1=O

compound no.	71	72	73	74	75	76	77	78
MbtI inh	-9	14	-4	-2	-10	-5	-7	-15
Polio RdRp inh	100	102	103	101	106	107	110	99
Polio RdRp inh intensity	103	107	102	105	105	117	109	103
MenB inh	-38	-138	-20	-3	/	-37	-41	6

Source: PubChem BioAssay (ICCB-Longwood Screening Facility, Harvard Medical School)
